Assay outcomes deposited in PubChem by several laboratories.
RanGTP-Impb inh: inhibitors of RanGTP-importin-beta interaction, primary screen, biochemical, FRET, CFP-Ran, YFP-importin-beta, homogeneous. cell-free CFP-Ran/YFP-importin-beta FRET ratio. 300,000 tested, 1.1% active. inhibition, % (concentration not given with the values);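 active means most replicates above 15%; inconclusive means exactly half above 15%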;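 further: 0% = DMSO wells and 100% = Ran loaded with GDP instead of GTP; wells of about 40 µL received 100 nL stock; the first replicate is given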
AF4-AF9 inh: blocks AF4 peptide binding to human AF9; AlphaScreen, biotin-AF4 peptide binding to FLAG-AF9; inhibition, % at 10 µM; 350,000 tested, 0.47% active; AID 651704;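 active means every replicate reaching a set inhibition limit, whatever the replicate mean, cut at about 25% in these data; inconclusive means mean inhibition reaches that limit but some replicates miss it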;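 further: 0% = plate neutral control median and 100% = total signal loss; the record names both 10 and 1 µM as test concentration; the first replicate is given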
Target sequence (P42568 whole entry, looked up): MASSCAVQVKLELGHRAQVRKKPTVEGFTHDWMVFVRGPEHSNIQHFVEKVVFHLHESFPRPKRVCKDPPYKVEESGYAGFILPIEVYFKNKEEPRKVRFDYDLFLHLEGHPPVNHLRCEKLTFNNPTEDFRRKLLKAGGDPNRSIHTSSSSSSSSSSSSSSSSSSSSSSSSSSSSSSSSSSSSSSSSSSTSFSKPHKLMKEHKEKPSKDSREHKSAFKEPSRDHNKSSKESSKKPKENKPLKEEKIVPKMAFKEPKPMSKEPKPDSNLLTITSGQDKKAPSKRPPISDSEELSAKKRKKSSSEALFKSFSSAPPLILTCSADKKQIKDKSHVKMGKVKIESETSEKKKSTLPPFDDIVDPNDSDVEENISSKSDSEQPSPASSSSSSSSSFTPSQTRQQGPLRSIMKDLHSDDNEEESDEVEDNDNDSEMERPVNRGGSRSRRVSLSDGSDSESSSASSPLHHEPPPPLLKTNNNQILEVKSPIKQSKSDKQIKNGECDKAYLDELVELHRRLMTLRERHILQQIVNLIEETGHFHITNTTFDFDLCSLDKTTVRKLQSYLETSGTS
Beta apoptosis: beta cell apoptosis inhibition. INS-1E cytokine-induced death, ATP luminescence, 48 h; percent of positive-control rescue, neutral wells zero. protection from apoptosis, % (concentration not given with the values). 300,000 tested, 0.8% active. AID 435005;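 active means all replicates at 75% or more, or half of them and the mean; inconclusive means half reach 75% but not the mean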;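 further: 0% = cytokine-treated negative control wells and 100% = positive control rescue; higher means more ATP so stronger rescue from cytokine killing; wells of about 40 µL received 100 nL stock; the first replicate is given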
Vif TR-FRET: inhibitors of Vif binding to APOBEC3G peptide, primary screen, biochemical, TR-FRET, GST-Vif 1-94, biotin-A3G peptide, dose response retest (AID 1117319). TR-FRET GST-Vif / biotin-A3G peptide binding; higher % means a stronger effect; test concentration not given here; strong numbers were not always called active. one-dose inhibition, %; IC50 in µM for titrated hits. 260,000 tested, 0.57% active;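 active means above the screen mean plus three standard deviations and confirmed in dose response; inconclusive means results disagree or hit not tested in dose response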;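 further: Vif residues 1-94 fused to GST binding biotinylated APOBEC3G peptide 110-148; 0% = full assay without inhibitor and 100% = GST in place of GST-Vif; retest series ran down from 100 µM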
Calb FLC: affects C. albicans growth with fluconazole; C. albicans CaCi-2 (fluconazole-resistant clinical isolate) + fluconazole, Alamar Blue growth, 48 h; growth inhibition, % (test concentration not listed); 300,000 tested, 0.57% active;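 active means most replicates above 75%; inconclusive means exactly half above 75%; inactive means most below 75%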;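 further: all wells also contain fluconazole at 8 µg/ml as a sub-toxic cotreatment; 0% = median of DMSO wells and 100% = median of geldanamycin control wells; wells of about 8 µL received 7.5 nL stock; the first replicate is given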
rRNA inh HTS: selective bacterial rRNA inhibition in E. coli; E. coli WT GFP vs humanized-ribosome RFP mutants, fluorescence, 24 h; stronger effect = lower value; DMSO median 0, no signal -100; GFP signal change (wild-type ribosome), % (concentration not given with the values); 350,000 tested, 1.6% active;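 active means significant combined selectivity score with lowered wild-type GFP, culture density cut under 30%, mutant RFP and density less affected; inactive means any of these conditions unmet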; further: one replicate is shown; some compounds called inactive have numbers as strong as hits
T cruzi inh: T. cruzi replication inhibition; inhibition, % (no concentration beside the values); T. cruzi beta-gal in NIH3T3, luminescence, 90 h; 300,000 tested, 1.4% active;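 active means mean inhibition across valid replicates above about 55%, limit read from the data; inconclusive means mean below that limit but half or more replicates reach it; inactive means mean below it, under half of replicates reach it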;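 further: signal also drops with host cell toxicity which is not excluded here; 0% = plate median of DMSO wells and 100% = zero luminescence signal; higher percent means less beta-gal luminescence so fewer parasites; stock transfer was 50 nL into about 50 µL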
A1 inh: inhibitors of the anti-apoptotic protein A1, read as caspase activation | AID 2462 | MEF A1-2A-BIM cells, Caspase-Glo 3/7 luminescence, 3 h; percent of clofoctol response, vehicle zero | 330,000 tested, 0.066% active | caspase activation, % (concentration not given with the values);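 active means over half of replicate activation scores above 10%, or exactly half above 10 with the replicate mean above 10; inconclusive means replicate mean below 10 yet half the replicates above 10; inactive means over half of replicates below 10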;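 further: wells of about 30 µL received 50 nL stock; many hits fall short of the cut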
rRNA inh HTS OD600: further read-out of rRNA inh HTS, marked with its call; OD600 change, %; measured here: OD600 growth;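 optical density of the mix in the first replicate; 0 = DMSO median and -100 = no signal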
rRNA inh HTS RFP: also measured in rRNA inh HTS; calls as there; RFP signal change, %; measured here: RFP humanized mutant strains;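 first replicate; 0 = DMSO median and -100 = no signal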
Active calls of the source: *; ? = inconclusive; nt = no result given. Only part of the results is shown; rates above refer to the full screens.

SMILES | RanGTP-Impb inh | AF4-AF9 inh | Beta apoptosis | Vif TR-FRET | Calb FLC | rRNA inh HTS | rRNA inh HTS OD600 | rRNA inh HTS RFP | T cruzi inh | A1 inh
CCCCNS(=O)(=O)c1ccc2nc(SCC(=O)Nc3ccccc3)[nH]c2c1 | ? | -4.3 | 1 | nt | -8 | nt | nt | nt | 2 | -0.6
CCOC(=O)c1ccc(N2C(=O)C(C)=C(C)C2=O)cc1 | -0.2 | nt | 5 | 3% | -5 | nt | nt | nt | -6 | -0.6
CSCCC(NS(=O)(=O)c1ccc(Cl)c(Cl)c1)C(=O)O (centres undefined) | -3.4 | -5.7 | -4 | -2% | -7 | 14 | -1 | 0.3 | -10 | -0.3
CCC1SC(CC)C(=O)N(CC(=O)NCc2ccc(F)cc2)C1=O (centres undefined) | 1.6 | -3.9 | -2 | -4% | 11 | -9 | -30 | -12 | -14 | 0.0
O=C(Nc1ccccc1)Nc1ccccc1C(=O)NCCCN1CCOCC1 | 0.1 | nt | -3 | ? | 2 | 17 | 13 | -2.0 | -12 | -3.6
Cc1cc(C)n2nc(S(=O)(=O)Nc3c(Cl)cccc3Cl)nc2n1 | 1.6 | -20 | -4 | nt | -14 | 5 | 0 | -3.1 | -14 | 1.4
CCOC(=O)[C@H]1NN=C(C(=O)OC)[C@@H]1c1ccccc1 | ? | 0.5 | 4 | -4% | -3 | 0 | 6 | 2.0 | 1 | -0.3
COc1ccc(Cl)cc1C(=O)OCC(=O)Nc1sccc1C(N)=O | nt | 0.4 | 5 | -4% | nt | 10 | 13 | 12 | nt | -0.9
Cc1ccc(C(=O)NCCOc2cccc3cccnc23)cc1Cl | nt | 1.6 | 3 | -9% | -18 | 12 | 3 | 2.0 | 13 | -0.4
CCCCCN(C(=O)CN1CCC(Cc2ccccc2)CC1)c1c(N)n(CCCC)c(=O)[nH]c1=O | ? | 0.0 | 1 | -5% | -3 | 3 | -16 | -4.1 | 14 | -0.8
CC(C)N(Cc1ccccc1)C(=O)c1cnc2n(c1=O)CCS2 | 2.9 | -1.1 | -7 | -6% | -6 | 2 | -5 | -4.7 | 6 | 0.4
CC(=O)C(C)Sc1nnc(-c2ccccc2F)n1C1CC1 (centres undefined) | -0.5 | -2.9 | -4 | nt | -4 | 3 | 6 | -1.6 | 0 | 0.8
C=CCNc1nnc(SCC(=O)Nc2ccccc2OC)c2ccccc12 | 0.2 | 0.3 | -5 | nt | -11 | 1 | -1 | -1.7 | 19 | 0.4
Cc1cccc(Nc2nc(NCC3CCCO3)nc(N)c2[N+](=O)[O-])c1 (centres undefined) | 2.3 | -1.9 | -1 | nt | 9 | 11 | 2 | 2.9 | 2 | -0.9
Cc1c(C)n(O)c2ccc3nonc3c12 | -4.9 | -0.1 | 1 | ? | 0 | -15 | -12 | 10 | -5 | 0.1
Cc1ccc(CC(=O)Nc2ccc(OC(F)F)c(Cl)c2)cc1C | -0.7 | -2.6 | -7 | nt | -14 | 1 | -1 | -0.4 | 23 | 0.3
COc1ccccc1C(CNc1ncccc1[N+](=O)[O-])N(C)C (centres undefined) | -2.7 | 4.1 | -1 | nt | -13 | 2 | 6 | -1.9 | nt | 0.3
CCCN(C(=O)Cn1c(C(F)(F)F)nc2ccccc21)C1CCS(=O)(=O)C1 (centres undefined) | 0.8 | -1.1 | nt | 1% | 0 | 3 | 8 | -2.4 | 1 | 0.9
N#C/C(=C/c1ccco1)c1nc2ccccc2s1 | 6.3 | nt | -8 | nt | 1 | nt | nt | nt | -4 | -6.2
O=c1cc(CN2CCN(Cc3ccccc3)CC2)c2cc3c(cc2o1)CCC3 | -1.4 | 6.8 | nt | 18% | 5 | -4 | -7 | 0.6 | 36 | -1.0
COc1cccc(-c2nc3c(c(SCC(=O)N4CCOCC4)n2)Cc2c(CO)cnc(C)c2O3)c1 | -0.7 | nt | 5 | nt | 4 | nt | nt | nt | 9 | 0.5
N#Cc1ccc(CSc2ccc(S(=O)(=O)N3CCCC3)cn2)cc1 | nt | -4.1 | -2 | -5% | nt | 4 | -23 | 1.7 | nt | 0.0
COc1ccc(NC(=O)CSc2nnc3ccc(-c4cccnc4)nn23)cc1OC | 0.1 | 4.6 | nt | 2% | -9 | 6 | 3 | -2.5 | -10 | 1.3
N/C(=N\OC(=O)CC1CCCCC1)c1ccc(Br)cc1 | -1.0 | -3.2 | 1 | -1% | 8 | 4 | 7 | 0.6 | -4 | 0.2

Among those listed so far, these have an aryl methoxy group.
SMILES | RanGTP-Impb inh | AF4-AF9 inh | Beta apoptosis | Vif TR-FRET | Calb FLC | rRNA inh HTS | rRNA inh HTS OD600 | rRNA inh HTS RFP | T cruzi inh | A1 inh
COc1ccc(Cl)cc1C(=O)OCC(=O)Nc1sccc1C(N)=O | nt | 0.4 | 5 | -4% | nt | 10 | 13 | 12 | nt | -0.9
C=CCNc1nnc(SCC(=O)Nc2ccccc2OC)c2ccccc12 | 0.2 | 0.3 | -5 | nt | -11 | 1 | -1 | -1.7 | 19 | 0.4
COc1ccccc1C(CNc1ncccc1[N+](=O)[O-])N(C)C (centres undefined) | -2.7 | 4.1 | -1 | nt | -13 | 2 | 6 | -1.9 | nt | 0.3
COc1cccc(-c2nc3c(c(SCC(=O)N4CCOCC4)n2)Cc2c(CO)cnc(C)c2O3)c1 | -0.7 | nt | 5 | nt | 4 | nt | nt | nt | 9 | 0.5
COc1ccc(NC(=O)CSc2nnc3ccc(-c4cccnc4)nn23)cc1OC | 0.1 | 4.6 | nt | 2% | -9 | 6 | 3 | -2.5 | -10 | 1.3

Going on with the list:
SMILES | RanGTP-Impb inh | AF4-AF9 inh | Beta apoptosis | Vif TR-FRET | Calb FLC | rRNA inh HTS | rRNA inh HTS OD600 | rRNA inh HTS RFP | T cruzi inh | A1 inh
COc1ccc(S(=O)(=O)N2CCN(CCCOc3ccc(F)cc3)CC2)cc1OC | -1.9 | 1.3 | -1 | nt | 5 | -6 | -22 | 0.0 | 6 | -0.1
CN(C(=O)COC(=O)CCC(=O)c1ccc(Cl)cc1)c1c(N)n(Cc2ccccc2)c(=O)[nH]c1=O | -0.7 | -0.5 | -1 | -12% | 23 | 6 | 3 | 2.6 | -6 | -0.1
CC(=O)Nc1ccc(S(=O)(=O)N2CCC(N3CCCCCC3)CC2)cc1 | -1.7 | 2.9 | nt | nt | -4 | 5 | 13 | -1.2 | -16 | -0.3
COc1ccc(C(O)(CC(C)C)C(CN2CCOCC2)c2ccccc2)cc1 (centres undefined) | 2.8 | -2.5 | 1 | -3% | -4 | -36 | -43 | -5.9 | -7 | 0.5
Cc1ccc(C(=O)Nc2ccc3c(c2)C(=O)NC3=O)cc1 | -0.6 | 2.2 | 4 | nt | -2 | 19 | 9 | 3.8 | -5 | 0.1
NS(=O)(=O)c1cc(C(=O)NC2CCSc3ccccc32)ccc1Cl (centres undefined) | 4.2 | -0.2 | -2 | ? | 3 | 6 | 6 | 1.3 | -2 | -0.2
O=C(Nc1ccc2nc(-c3cccnc3)[nH]c2c1)c1ccco1 | -1.9 | 5.0 | 16 | -5% | -3 | -31* | 1.9* | -3.7* | -7 | -0.2
CCOC(=O)c1ccc(NC(=O)c2nc[nH]c2C(=O)NCCNC(=O)c2[nH]cnc2C(=O)Nc2ccc(C(=O)OCC)cc2)cc1 | nt | -12 | 11 | nt | nt | 19 | 16 | 1.1 | nt | -0.8
C/C(=N\NC(=O)Cn1ccc(C(F)(F)F)n1)c1ccco1 | -2.5 | -24 | -3 | -1% | -9 | -1 | 3 | -0.7 | -16 | 1.5
c1coc(CNCc2cccs2)c1 | 1.9 | nt | -10 | -1% | -7 | nt | nt | nt | -8 | 1.3
C#CC(CC)(CC)NC(=O)/C=C/C(=O)O | 1.9 | -1.0 | -4 | nt | -1 | 5 | 9 | 0.6 | -14 | 0.7
[O-]c1c[n+](-c2ccccc2)no1 | -0.2 | 5.6 | 2 | -8% | -5 | 17 | -5 | -1.3 | 5 | -0.1
O=C(NC(=S)N1CCCC1)c1ccccc1Cl | -2.3 | 0.6 | -10 | nt | 1 | 5 | 14 | -0.9 | -72 | 0.5
COc1ccc(N2C(=O)C3CCCN3C2c2ccccc2)cc1 (centres undefined) | 1.5 | 0.3 | -6 | 4% | 3 | 10 | 6 | 0.9 | -10 | 0.0
CC(=O)NCCC(=O)N(Cc1ccccc1)c1nc2c(C)cccc2s1 | 1.0 | 0.2 | 5 | nt | 63 | -9 | -17 | -1.0 | -30 | 0.3
O=C1CN(C(=O)COc2ccc(F)cc2Br)c2ccccc2N1 | 5.1 | 0.6 | 0 | 18% | 14 | -14 | -12 | 0.5 | -3 | 0.0
Cc1c(NC(=O)c2cccc(F)c2)c(=O)n(-c2ccccc2)n1C | -2.0 | -51 | -3 | 26% | 7 | 8 | 14 | -5.0 | -3 | -0.1
COc1cc(NC(=S)NCCN2CCOCC2)cc(OC)c1OC | 6.7 | -3.7 | -5 | 2% | 24 | 10 | 8 | 3.2 | -9 | 0.1
S=C(NCCc1ccccc1)N/N=C/c1cccc(Cl)c1Cl | ? | 2.5 | -6 | 16% | -16 | 7 | 10 | 14 | -8 | 0.0
Cn1nc(OC(=O)Nc2cccc(Cl)c2)cc1C(F)(F)F | 2.5 | nt | nt | 2% | -1 | nt | nt | nt | 27 | -0.5
COc1ccc(-n2c(SCC(=O)N/N=C/c3ccccc3OCC(=O)O)nc3ccccc3c2=O)cc1 | 2.8 | -13 | -3 | 6% | 4 | 3 | -3 | -6.4 | -16 | -0.1
CCn1c(N2CCN(C(=S)Nc3ccc(OC)cc3)CC2)nc2ccccc21 | -9.4 | 1.9 | 2 | 5% | -8 | -24 | -19 | -1.6 | 8 | 0.6
c1ccc(N2CCN(c3ccccc3)C2c2ccncc2)cc1 | -4.6 | 0.0 | 3 | 24% | -3 | -2 | -5 | -1.6 | 10 | 0.3
Cc1occc1-c1nnc(SCC(=O)Nc2ccccn2)o1 | 0.6 | -6.6 | -2 | nt | 10 | 7 | 12 | 4.5 | -6 | -0.1
CCC(Sc1nc(-c2cccc(OC)c2)c(C#N)c(=O)[nH]1)C(=O)Nc1nnc(C(C)C)s1 (centres undefined) | -1.5 | -5.0 | 0 | -14% | -43 | 0 | 5 | -1.6 | -26 | 0.0
CCCC[C@H]1COCCS(=O)(=O)N1Cc1cccc(F)c1 | 0.5 | 0.2 | 2 | nt | -2 | -1 | 9 | 0.6 | -28 | 0.1
Cc1ccc(SCCNC(=O)/C=C/c2cccc([N+](=O)[O-])c2)cc1 | ? | -4.3 | -7 | -4% | -3 | nt | nt | nt | -3 | 0.1
CCOCCCNC(=O)CSc1nnc(-c2ccc(S(=O)(=O)N3CCCC3)cc2)n1C | ? | 0.4 | -1 | nt | -3 | 8 | 5 | -2.1 | -5 | 0.0
